gsp antag – qHTS for Antagonists of gsp, the Etiologic Mutation Responsible for Fibrous Dysplasia/McCune-Albright Syndrome: qHTS; gsp-mutant cells, cAMP HTRF, 30 min; control for the full effect not named in the record; Potency, µM (highest dose often 76.9 µM), for inactives: top-dose activity change, negative = inhibition, actives largely listed as inhibitors; hit rate 0.4% among 340,000; AID 624288, 2012; active = falling curve of any shape with a large fitted effect; inconclusive = falling curve, mostly with a smaller effect; inactive = flat or rising curve; cell line not stated here;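 further: intracellular cAMP measured with PDE inhibitor Ro 20-1724 present during compound exposure; potency means the concentration at half of the fitted maximal effect; on the % scale 0 is the no-effect control and ±100 the full control effect; nearly all actives have a fitted effect of over 65% in size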
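Cells in G418 medium, seeded 16-24 h, 37C; buffer exchange to DPBS + 1 mM CaCl2, 0.5 mM MgCl2, 0.05% BSA; cpds in DMSO + […] (300 uM stock), 30 min 37C; HTRF cAMP detection.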
gsp ag – qHTS for Agonist of gsp, the Etiologic Mutation Responsible for Fibrous Dysplasia/McCune-Albright Syndrome: qHTS; gsp mutant cells, cAMP HTRF, 30 min; control for the full effect not named in the record; Potency, µM (series often up to 76.9 µM), for the others: top-dose activation (cAMP increase), hits mostly activators; hit rate 0.13% among 340,000; active = well fitted activation curve with a large enough effect; inconclusive = small, poorly fitted or top-dose-only effect, or another doubt; inactive = no such curve, though single readings can be large or run the other way; cell line not stated here;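 further: phosphodiesterase inhibitor Ro 20-1724 added with compounds to block cAMP breakdown; potency means the concentration at half of the fitted maximal effect; nearly all actives have a fitted effect of over 60% in size; about a fifth of the inactives were tested at one dose only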
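Cells stably selected in G418 were plated at 2000/well, grown 16-24 hr, then given compounds in DMSO with the PDE inhibitor […] (300 uM solution added) for 30 min at 37C; cAMP was read by HTRF.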
ClpP mod – qHTS Assay for Activators of ClpP. ATP-dependent Clp protease proteolytic subunit (Bacillus subtilis (strain 168)), P80244. purified B. subtilis ClpP, FRET peptide cleavage, 20 min. Potency, µM (titrated, usually from 57.5 µM), for inactives: at the highest dose activity change, negative = active. hit rate 1.9% among 340,000. AID 651965, 2013; active = well fitted falling curve with a large enough effect; inconclusive = small, poorly fitted or top-dose-only effect; inactive = no such curve, though single readings can be large or run the other way; further: potency means the concentration at half of the fitted maximal effect; the source files actives as falling curves though it sought activators and does not explain the sign; nearly all actives have a fitted effect of over 65% in size; many hits overshoot -100%
Target sequence (P80244 whole entry, looked up): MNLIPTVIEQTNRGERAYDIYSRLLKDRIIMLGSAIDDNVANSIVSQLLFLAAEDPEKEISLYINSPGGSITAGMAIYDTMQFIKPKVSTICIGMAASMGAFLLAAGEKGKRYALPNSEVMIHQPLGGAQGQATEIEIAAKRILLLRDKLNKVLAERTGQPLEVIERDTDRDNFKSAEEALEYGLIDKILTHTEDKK
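FRET quenching reversal measured ClpP activation: 10 microg/mL B. subtilis ClpP at pH 8 with the FRET-FV decapeptide, read at 430 nm after 320 nm excitation. The 20-min minus 0-min signal was scaled between DMSO/no-enzyme wells and ADEP (5.8 microM final).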
Menin-MLL FL inh – qHTS Assay for Inhibitors Targeting the Menin-MLL Interaction in MLL Related Leukemias: Competition With Fluorescein Labeled MLL-derived Peptide; Fluorescence polarization, fluorescein-MLL peptide displacement from menin; 290,000 tested, under 10 active; FP activity change, % at 61.4 µM; AID 1766, 2009; inconclusive = falling polarisation curve, or a change in total fluorescence; inactive = total fluorescence flat and polarisation flat or rising; no compound was filed as active; the % refers to the polarisation; negative = inhibition;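 further: % of control where 0% means no effect; inhibitors lower the polarisation; unlabelled MLL peptide was the positive control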
Sfp PPTase inh – qHTS Assay for Inhibitors of Bacillus subtilis Sfp phosphopantetheinyl transferase (PPTase); Biochemical Sfp PPTase activity, qHTS; 4'-phosphopantetheinyl transferase ffp (Bacillus subtilis), Q9F4F7; AID 1490, 2009; hit rate 3.5% among 310,000; Potency, µM, for inactives: max response, negative = inhibition, hits mostly inhibitors; active means well fitted inhibition curve with a large enough effect; inconclusive means small, poorly fitted or top-dose-only effect, or another doubt; inactive means no such curve, though single readings can be large or run the other way;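 further: the enzyme is Sfp with the accession as filed and its product quenches rhodamine fluorescence; potency means the concentration at half of the fitted maximal effect; 0% = enzyme reaction without inhibitor and -100% = no enzyme wells; top concentration of the series not given in the record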
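Buffer: 50 mM Hepes-Na pH 7.6, 10 mM MgCl2, 0.01% Nonidet P-40, 0.01% BSA. Enzyme 15 nM, pre-exposed to compound 15 min; substrates then added and fluorescence change tracked over 30 min.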
TRPV1 PAM – HTS Assay for Compounds that Act as Potentiators of the Vanilloid Receptor 1; Transient receptor potential cation channel subfamily V member 1 (Homo sapiens), Q8NER1; TRPV1-expressing cells, Fluo-8 calcium influx, capsaicin EC20 potentiation; host cell line not named in the record; control for the full effect not named in the record; potentiation, % at 8.33 µM; hit rate 0.02% among 320,000; active means potentiation above 80%; inconclusive means 30% to 80%; inactive means below 30%; further: 0% is about no effect
Target sequence (Q8NER1 whole entry, looked up): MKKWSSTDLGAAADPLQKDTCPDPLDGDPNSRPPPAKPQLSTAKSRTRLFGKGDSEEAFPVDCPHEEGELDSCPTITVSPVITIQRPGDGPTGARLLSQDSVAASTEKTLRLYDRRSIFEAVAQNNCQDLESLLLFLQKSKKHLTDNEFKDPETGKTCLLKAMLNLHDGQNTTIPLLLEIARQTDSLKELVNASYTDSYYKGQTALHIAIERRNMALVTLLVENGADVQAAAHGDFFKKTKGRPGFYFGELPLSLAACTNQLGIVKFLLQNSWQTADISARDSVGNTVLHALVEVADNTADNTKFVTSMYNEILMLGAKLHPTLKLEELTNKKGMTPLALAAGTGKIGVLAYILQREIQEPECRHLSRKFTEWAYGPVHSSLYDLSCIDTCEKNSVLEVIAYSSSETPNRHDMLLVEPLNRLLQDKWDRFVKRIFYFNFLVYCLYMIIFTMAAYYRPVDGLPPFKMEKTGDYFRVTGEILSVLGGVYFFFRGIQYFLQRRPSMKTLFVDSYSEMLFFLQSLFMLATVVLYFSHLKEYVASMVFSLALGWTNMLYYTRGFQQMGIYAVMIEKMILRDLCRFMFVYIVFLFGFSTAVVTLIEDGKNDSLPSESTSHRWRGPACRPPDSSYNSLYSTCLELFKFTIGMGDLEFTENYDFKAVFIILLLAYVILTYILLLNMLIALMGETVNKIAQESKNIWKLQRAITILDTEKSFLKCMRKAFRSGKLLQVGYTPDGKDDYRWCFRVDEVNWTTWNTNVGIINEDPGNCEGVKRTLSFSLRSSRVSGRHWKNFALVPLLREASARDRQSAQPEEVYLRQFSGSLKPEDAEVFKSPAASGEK
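TRPV1-expressing cells were cultured overnight at 35.5C and loaded with Fluo-8 calcium dye for 40 to 90 min at room temperature. After a 10 s baseline, compound was added and calcium influx was read kinetically for 3 min (ex 480/em 520 nm).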
TRPML1 inh – qHTS for Inhibitors of the Human Mucolipin Transient Receptor Potential 1 (TRPML1). activity change, negative = inhibition, % (concentration not given with the values). AID 624415, 2012. hit rate 0.02% among 390,000. Mucolipin-1 (Homo sapiens), Q9GZU1. TRPML1-inducible cells, Ca2+ dye fluorescence, FDSS; active compounds read low; inhibition of EC80 agonist-evoked calcium signal; in the data active means activity change below about -50%; inconclusive means about -30% to -50%; inactive means above about -30%;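 further: stimulus is agonist 54-4 at its EC80 concentration; on the % scale 0 is the no-effect control and ±100 the full control effect; the text of the record puts the active cut at -80%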
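TRPML1-DL cells, Tet-induced overnight (~16 h, 37 °C) at 1,500 cells/well, were loaded with Ca8 no-wash dye plus quencher for 45-90 min at room temperature. Compounds were pinned during FDSS kinetic reading; agonist 54-4 at EC80 (4 uM final) then added.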
Active calls of the source: *; ? = inconclusive; / = no result given; [ ] = dose if it differs, or a comment. No enrichment for hits, and some 4.9% of all compounds hit somewhere here.

SMILES	gsp antag	gsp ag	ClpP mod	Menin-MLL FL inh	Sfp PPTase inh	TRPV1 PAM	TRPML1 inh
O=C(Cn1cc[n+](Cc2ccccc2)c1)c1ccc([N+](=O)[O-])cc1	12%	-29%	/	-12	4%	-27	6
Oc1ccccc1-c1cc(-c2ccccc2)n[nH]1	-18%	17%	-0.5%	/	/	/	-3
COc1ccc(N(C)S(=O)(=O)c2cccc(C(=O)NC3CCC(C)CC3)c2)cc1 (centres undefined)	-17%	-10%[15.4 µM]	/	0.7	19%	-18	16
Brc1ccccc1C1Nc2cccc3cccc(c23)N1	-4%	-43%[inhibitor]	/	0.2	-1%	?	-15
Cc1ccccc1Cn1cc(NC(=O)c2noc(C(C)C)c2[N+](=O)[O-])cn1	-10%	21%	0.2%	/	1%	1	6
CC(C)Cc1nnc(NC(=O)c2cc([N+](=O)[O-])ccc2N2CCOCC2)s1	-6%	5%	-4.8%	-2.0	-9%	-1	3
Cc1cc(C)cc(NC(=O)CCCSc2nc3ccccc3[nH]2)c1	-14%	-14%	1.4%	1.8	5%	-5	17
CCS(=O)(=O)N1CCCC(C(=O)NCCc2ccccc2)C1 (centres undefined)	9%	-7%	0.2%	2.5	25%	2	-20
COc1ccc(S(=O)(=O)N2CCOC2CNC(=O)C(=O)NCCCn2ccnc2)cc1OC (centres undefined)	14%	-3%	0.1%	?	21%	10	0
COc1ccc(N2CCN(c3ccc(NC(=O)C4CCCCC4)cc3C#N)CC2)cc1	4%	2%	28µM*	-2.6	22%	-5	32
COc1ccc(S(=O)(=O)Nc2ccccc2C(=O)NC(C)C)cc1OC	-2%	?	?	0.6	19%	-2	10
COc1ccc(NS(=O)(=O)c2cccc(C(=O)N3CCCC3)c2)cc1	0%	-1%	-17%	/	/	-1	1
Cc1sc(=NC(=O)c2ccco2)n(C)c1-c1ccc(F)cc1	13%	-13%	-29%	-0.5	2%	-18	-7
CCC(C(=O)Nc1ccc2[nH]ncc2c1)c1ccccc1 (centres undefined)	21%	-5%[15.4 µM]	-0.4%	-3.2	12%	11	11
CCN(C(=O)c1cc2cc(OC)ccc2oc1=O)c1ccccc1	-1%	1%	-8.0%	2.8	16%	-4	-13
O=C(CC12CC3CC(CC(C3)C1)C2)NC1CC1	10%	-2%[15.4 µM]	0.4%	/	/	/	25
COc1ccc(-c2cc(C(=O)NC3CCCCC3)no2)cc1OC	10%	22%	/	-2.0	11%	1	2
CCN(CC(=O)Nc1ccccc1C(F)(F)F)C(=O)c1cc(S(=O)(=O)N2CCCCCC2)ccc1OC	-18%	-27%	1.3%	/	/	21	24
COc1ccc(CCNC(=O)CSCc2c(F)cccc2Cl)cc1OC	2%	?	/	-3.7	-11%	-22	23
CCN(CC)CC#CCOC(c1ccccc1)c1ccccc1	/	4%[15.4 µM]	/	1.1	13%	-14	-1
Cc1cc(NC(=O)CCC(=O)N(CC(=O)NC2CCCC2)Cc2cccs2)no1	12%	2%[15.4 µM]	/	3.6	11%	5	3
CCOC(=O)C(C)Oc1cccc2c(=O)n(CC(=O)N3CCN(C(=O)OCC)CC3)ccc12 (centres undefined)	3%	-75%	4.6%	3.2	30%[activator]	29	7
CCOC(=O)Cc1csc(NC(=O)CN2CCOCC2)n1	7%	-69%[inhibitor]	/	-0.1	12%	-39	-5
CCOc1ccccc1C(=O)NC1CC2CCCC(C1)N2Cc1ccccc1 (centres undefined)	13%	2%	-0.7%	1.6	7%	1	-1
O=C(C1CCN(S(=O)(=O)c2cc(Cl)ccc2Cl)CC1)N1CCOCC1	-3%	-5%	/	2.9	13%	-19	-11
CCOC(=O)C1(CCCc2ccccc2)CCN(Cc2nccn2CC)CC1	?	3%[15.4 µM]	/	-3.2	12%	-11	9
CCOC(=O)CN(Cc1cc(OC)cc(N(C)C)c1OC)C(=O)C1CC(CO[Si](C)(C)C(C)(C)C)=CN1C(=O)OC(C)(C)C (centres undefined)	/	/	/	5.9	-1%	/	-8
Cc1ccc(S(=O)(=O)N(C)C)cc1NC(=O)C(C)OC(=O)c1ccc2c(=O)n3c(nc2c1)CCC3 (centres undefined)	-3%	0%	-12%	/	/	/	-12
CC(C)c1ccc(N(CC(=O)NCc2ccco2)C(=O)CCC(=O)Nc2nccs2)cc1	5%	-14%[15.4 µM]	/	-3.8	-3%	-1	4
Cc1nc(NC(=S)NC(=O)c2ccccc2)sc1C	7%	0%	-2.7%	0.8	?	-14	/
CN1C(C(=O)NCC2CC2)CC2Cn3c(nc4cc(Cl)c(Cl)cc43)C21 (centres undefined)	-3%	/	0.4%	1.4	3%	-4	-7
CC(C(=O)NCCC1=CCCCC1)c1ccc([N+](=O)[O-])cc1 (centres undefined)	-6%	-8%	/	-3.5	3%	-1	-2
Cc1c(Nc2ccc3nonc3c2[N+](=O)[O-])c(=O)n(-c2ccccc2)n1C	3%	9%[15.4 µM]	/	-0.3	20%	5	-1
CC(NC(=O)COC(=O)/C=C/c1ccc2c(c1)OCO2)c1ccccc1 (centres undefined)	8%	-29%	?	/	/	5	-7
Nc1ccc2c(c1)C(=O)CCC2	/	?	-0.2%	/	/	/	10
O=C(N/C=C/c1ccco1)Nc1cccc(Cl)c1	-1%	-34%	0.1%	?	4%	4	31
Clc1ccc(N/N=C/c2cccnc2)cc1	4%	-9%	-1.9%	1.8	-7%	-16	17
CC(Sc1ccc(S(=O)(=O)N2CCCC2)cn1)C(N)=O (centres undefined)	-3%	0%	0.6%	/	/	26	-4
O=C(O)CCCCCNS(=O)(=O)/C=C/c1ccccc1	-2%	-1%[15.4 µM]	/	-0.9	29%	2	1
Cc1nc(-c2cccc(NC(=O)c3cc4cc(Br)ccc4oc3=O)c2)cs1	-1%	-70%[inhibitor]	-1.3%	3.6	-17%	9	-18

As entered above.
In Sfp PPTase inh, CN1C(C(=O)NCC2CC2)CC2Cn3c(nc4cc(Cl)c(Cl)cc43)C21 (centres undefined) shows 3%
In TRPML1 inh, Nc1ccc2c(c1)C(=O)CCC2 shows 10

Additional records follow:
SMILES	gsp antag	gsp ag	ClpP mod	Menin-MLL FL inh	Sfp PPTase inh	TRPV1 PAM	TRPML1 inh
CCC1(C)Cc2ccccc2-c2nc(NCCCO)[nH]c(=O)c21 (centres undefined)	-6%	1%	3.5%	2.3	-7%	-4	/
COC(=O)CC(c1ccc(F)cc1)n1c(C)ccc1C (centres undefined)	1%	20%	/	3.8	-1%	5	-14
Nc1c(CNCc2nnn(Cc3ccccc3)c2N)nnn1Cc1ccccc1	/	-6%	-1.4%	/	/	/	-8
CCCNC(=O)C(Cc1ccc(C(F)(F)F)cc1)NC(=O)c1ccc(C#N)cc1 (centres undefined)	10%	/	0.3%	/	/	-31	-9
CNC(=O)N(O)C1N(/N=C/c2cccs2)C(=S)SC1(C)C (centres undefined)	10%	3%	/	4.2	-10%	2	10
O=C(O)c1ccccc1CSC1=NCCS1	4%	-1%	1.7%	-1.8	?	3	1
Nc1nc(=S)c2ncn(C3OC(CO)CC3O)c2[nH]1 (centres undefined)	-2%	-10%	-1.4%	/	/	/	11
CCOC(=O)c1c(NC(=O)CC2Nc3ccccc3NC2=O)sc(C)c1C (centres undefined)	-2%	7%[15.4 µM]	-1.4%	0.5	-1%	-4	-12
CCc1cc2ccccc2nc1Cl	3%	-33%	0.2%	-2.2	20%	6	40
O=C(COC(=O)c1n[nH]c(=O)c2ccccc12)Nc1ccccc1F	10%	-9%[15.4 µM]	-0.2%	/	/	/	-4
C[C@H](N)C(=O)N1CCC(C(=O)N[C@@H](Cc2ccccc2)C(=O)Nc2ccc(F)cc2)CC1	6%	/	6.2%	0.2	10%	5	/
CCC(C)[C@H](NC(=O)NCc1ccco1)C(=O)OC (some centres undefined)	6%	12%[15.4 µM]	-3.0%	3.0	12%	-8	-9
CC(C)=CC(=O)OCC(=O)Nc1cccc([N+](=O)[O-])c1	12%	9%	-1.3%	5.7	6%	-9	-8
COc1ccc(-c2ccc(CN3C(CC(C)C)C(=O)N(Cc4cn(CCC5OCCCO5)nn4)CCS3(=O)=O)cc2)cc1OC (centres undefined)	/	-4%	-6.6%	/	/	/	7
Cc1cc(NC(=O)CN2C(=O)/C(=C/c3cccc(Br)c3)SC2=S)no1	0%	8%	/	13	9%	4	46
CCOC(=O)c1cnc(Nc2nc3ccccc3o2)nc1CSc1nnc(C)s1	2%	26%	-1.2%	/	/	/	3
CC12CN3CC(C)(CN(C1)C3c1ccc(Br)cc1O)C2 (centres undefined)	-2%	-28%	-1.9%	5.0	15%	0	-2
CC(NC(=O)c1ccccc1)c1nc2ccccc2n1Cc1ccccc1F (centres undefined)	/	/	/	5.0	6%	?	/
COc1cccc(CN2CCC(Oc3ccc(C(=O)NCc4ccccn4)cc3)CC2)c1	5%	11%	-1.2%	-9.5	20%	2	-8
COC(=O)c1sccc1NC(=O)Nc1cccc(OC)c1	-19%	6%	-9.0%	/	2%	-12	15
O=P(COCCOCP(=O)(c1ccccc1)c1ccccc1)(c1ccccc1)c1ccccc1	5%	-33%[inhibitor]	-3.0%	1.4	10%	19	1
Cc1cc(C)nc(SCCC(=O)N2CCOCC2)n1	3%	2%	1.0%	3.2	-10%	4	-2
O=C(O)C1C2C=CC(C2)C1C(=O)Nc1nccs1 (centres undefined)	9%	-33%[inhibitor]	0.2%	1.3	0%	-18	2
